# Assay outcomes (PubChem BioAssay)
# D2 PAM: positive allosteric modulators of human D2 dopamine receptor; P14416; DiscoveRx D2 beta-arrestin cells, luminescence, 90 min; 100% = 57 uM dopamine signal; potentiation, % (no concentration beside the values); 0.23% of 360,000 active; AID 624464; active = potentiation of 50% or more; inconclusive = 30% to 50%; inactive = 30% or less;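 note: compound concentration not given in the record; tested on top of an EC20 dose of dopamine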
#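 D2 cells co-treated with compound plus 50 nM dopamine (EC20) for 90 min at 37 deg C to detect potentiation. Beta-arrestin recruitment was read as enzyme-fragment luminescence after 1 h at ambient temperature. Full response was set by 57 uM dopamine.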
# gsp antagonist: antagonists of gsp mutant (McCune-Albright syndrome); gsp-mutant cells, cAMP HTRF, 30 min; control for the full effect not named in the record; Potency, µM (titrated, usually from 76.9 µM), for the others: at the highest dose activity change, negative = inhibition, usual class: inhibitors; 0.4% of 340,000 active; active = falling curve of any shape with a large fitted effect; inconclusive = falling curve, mostly with a smaller effect; inactive = flat or rising curve; cell line not stated here;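 note: intracellular cAMP measured with PDE inhibitor Ro 20-1724 present during compound exposure; potency is the fitted concentration of half-maximal effect; % is set by controls: 0 for no effect and ±100 for the full control effect; nearly all actives have a fitted effect of over 65% in size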
#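 Cells, 2000/well, grown 16–24 h in DMEM 10% FBS with 0.5 mg/ml G418, then compounds plus […] (300 uM addition stock), 30 min at 37C. cAMP read by HTRF (cAMP-d2 and anti-cAMP antibody-K in lysis buffer) after 30 min RT.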
# ClpP mod: qHTS Assay for Activators of ClpP. ATP-dependent Clp protease proteolytic subunit (Bacillus subtilis (strain 168)), P80244. purified B. subtilis ClpP, FRET peptide cleavage, 20 min. Potency, µM (highest dose often 57.5 µM), without a hit: top-dose activity change, negative = active. 1.9% of 340,000 active; active = well fitted falling curve with a large enough effect; inconclusive = small, poorly fitted or top-dose-only effect; inactive = no such curve, though single readings can be large or run the other way; note: potency is the fitted concentration of half-maximal effect; the source files actives as falling curves though it sought activators and does not explain the sign; nearly all actives have a fitted effect of over 65% in size; many hits overshoot -100%
# Target sequence (P80244 whole entry, looked up): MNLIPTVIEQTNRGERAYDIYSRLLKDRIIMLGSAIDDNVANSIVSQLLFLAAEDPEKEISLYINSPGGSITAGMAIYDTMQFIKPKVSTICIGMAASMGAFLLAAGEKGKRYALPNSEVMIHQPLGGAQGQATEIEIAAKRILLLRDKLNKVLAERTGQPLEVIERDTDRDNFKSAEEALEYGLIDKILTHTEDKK
#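 ClpP 10 microg/mL final, pH 8 Tris/KCl buffer with BSA, glycerol, Tween-20; compound pinned in; FRET-FV substrate; RT 20 min; Ex320/Em430; ΔFRET vs ADEP 5.8 microM, DMSO, no enzyme.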
# Menin MLL FP FL: menin-MLL binding inhibition, fluorescein peptide | Fluorescence polarization, fluorescein-MLL peptide displacement from menin | FP activity change, % at 61.4 µM | 290,000 tested, under 10 active | AID 1766; inconclusive = falling polarisation curve, or a change in total fluorescence; inactive = total fluorescence flat and polarisation flat or rising; no compound was filed as active; the % refers to the polarisation; negative = inhibition;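 note: % of control where 0% means no effect; inhibitors lower the polarisation; unlabelled MLL peptide was the positive control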
# gsp ag: agonists of gsp mutant (McCune-Albright syndrome); gsp mutant cells, cAMP HTRF, 30 min; control for the full effect not named in the record; Potency, µM (titrated, usually from 76.9 µM), inactives show top-dose activation (cAMP increase), actives largely listed as activators; 0.13% of 340,000 active; active = well fitted activation curve with a large enough effect; inconclusive = small, poorly fitted or top-dose-only effect, or another doubt; inactive = no such curve, though single readings can be large or run the other way; cell line not stated here;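 note: phosphodiesterase inhibitor Ro 20-1724 added with compounds to block cAMP breakdown; potency is the fitted concentration of half-maximal effect; nearly all actives have a fitted effect of over 60% in size; about a fifth of the inactives were tested at one dose only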
#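 Cells in DMEM/10% FBS with G418 were pretreated with compounds in DMSO plus […] (300 uM stock) for 30 min at 37C. cAMP was measured by HTRF (cAMP-d2 plus anti-cAMP antibody-K) after 30 min at room temperature.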
# TRPV1 potentiator: human TRPV1 potentiation. Q8NER1. TRPV1-expressing cells, Fluo-8 calcium influx, capsaicin EC20 potentiation; host cell line not named in the record; control for the full effect not named in the record. potentiation, % at 8.33 µM. 0.02% of 320,000 active. AID 540277; active means potentiation above 80%; inconclusive means 30% to 80%; inactive means below 30%; note: 0% is about no effect
# Target sequence (Q8NER1 whole entry, looked up): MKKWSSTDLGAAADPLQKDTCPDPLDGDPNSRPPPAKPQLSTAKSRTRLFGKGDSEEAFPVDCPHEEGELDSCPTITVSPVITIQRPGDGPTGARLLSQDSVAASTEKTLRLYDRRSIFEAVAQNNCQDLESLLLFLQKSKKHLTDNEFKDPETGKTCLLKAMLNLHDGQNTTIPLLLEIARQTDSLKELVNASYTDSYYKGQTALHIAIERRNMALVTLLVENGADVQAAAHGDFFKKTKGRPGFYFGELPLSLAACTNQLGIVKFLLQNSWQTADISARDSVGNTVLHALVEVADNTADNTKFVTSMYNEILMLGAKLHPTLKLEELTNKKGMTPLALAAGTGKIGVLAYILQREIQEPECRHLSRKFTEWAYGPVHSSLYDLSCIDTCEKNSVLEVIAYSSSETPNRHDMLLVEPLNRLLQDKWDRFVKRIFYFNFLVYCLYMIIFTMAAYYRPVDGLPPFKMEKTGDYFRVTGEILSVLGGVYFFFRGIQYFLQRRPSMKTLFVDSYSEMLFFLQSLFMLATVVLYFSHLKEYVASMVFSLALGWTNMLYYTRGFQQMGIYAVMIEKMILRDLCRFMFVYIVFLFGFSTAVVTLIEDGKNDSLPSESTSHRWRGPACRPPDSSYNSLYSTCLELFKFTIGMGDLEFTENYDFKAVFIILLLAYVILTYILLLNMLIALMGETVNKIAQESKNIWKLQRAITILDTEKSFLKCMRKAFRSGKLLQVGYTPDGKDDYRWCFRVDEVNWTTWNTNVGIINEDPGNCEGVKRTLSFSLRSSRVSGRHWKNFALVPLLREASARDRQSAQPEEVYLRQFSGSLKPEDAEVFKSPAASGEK
#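 Cells expressing TRPV1 were dye-loaded with Fluo-8 and read kinetically: 10 s baseline, 3 min after compound (agonist portion), then 2 min after EC20 capsaicin (allosteric enhancer portion). Calcium-bound dye fluorescence at 480/520 nm.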
# Sfp PPTase inh: blocks B. subtilis Sfp PPTase activity. Q9F4F7. Biochemical Sfp PPTase activity, qHTS. Potency, µM, inactives show max response, negative = inhibition, hits mostly inhibitors. 3.5% of 310,000 active; active = well fitted inhibition curve with a large enough effect; inconclusive = small, poorly fitted or top-dose-only effect, or another doubt; inactive = no such curve, though single readings can be large or run the other way;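 note: the enzyme is Sfp with the accession as filed and its product quenches rhodamine fluorescence; potency is the fitted concentration of half-maximal effect; 0% = enzyme reaction without inhibitor and -100% = no enzyme wells; top concentration of the series not given in the record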
#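 Sfp 15 nM + cpd, 15 min RT; start w/ rhodamine-CoA 5 uM, BHQ-2-YbbR 12.5 uM (final); 50 mM Hepes pH 7.6, 10 mM MgCl2, 0.01% NP-40, 0.01% BSA; read 525/598 nm at 0 and 30 min.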
# Active calls of the source: *; ? = inconclusive; · = not tested or not shown; [ ] = another dose, or the depositor's remark. An unsorted share of the library; about 5.1% have a hit in one of these screens.
SMILES,D2 PAM,gsp antagonist,ClpP mod,Menin MLL FP FL,gsp ag,TRPV1 potentiator,Sfp PPTase inh
Cc1cccc(CN2C(=O)N/C(=C/c3ccc(C)s3)C2=O)c1,15,2%,-0.4%,?,-32%[inhibitor],-8,-24%
O=C(COC(=O)c1cc(S(=O)(=O)N2CCOCC2)ccc1Cl)c1ccc[nH]1,-8,·,0.6%,·,-67%[inhibitor],·,·
COc1ccc(N)c(C)c1,2,-5%,-2.3%,·,·,·,·
O=C(c1ccco1)N1N=C(c2ccccc2)CC1c1ccc2nccnc2c1 (stereo unspecified),-8,-14%,-0.6%,0.5,-7%[15.4 µM],5,-25%
Cc1ccc(S(=O)(=O)N2CCN(CC(=O)Nc3ccccc3C(=O)NC3CC3)CC2)cc1,7,-11%,-13%,·,-6%[15.4 µM],-1,·
Cn1cc(S(=O)(=O)c2ccccc2)c(=O)c2cc(Cl)ccc21,-4,5%,-2.0%,·,-2%,-2,20%
O=C(NCc1ccc(S(=O)(=O)NC2CCCCC2)s1)c1ccccc1,0,4%,·,2.8,-5%[15.4 µM],-2,4%
CCc1c(C)nc2nc(NC(C)=O)[nH]n2c1=O,-5,13%,-2.6%,-0.4,6%,12,-3%
CC(C)CNC(=O)c1cc(-c2ccc(Br)cc2)on1,3,6%,-1.1%,2.7,-37%[inhibitor],-11,28%
CC(C)(C)n1nnnc1CN(Cc1cccnc1)Cc1ccccc1Cl,-4,?,-1.8%,2.3,5%,-10,0%

# A run of entries taken from the entries so far, as a working copy:
SMILES,D2 PAM,gsp antagonist,ClpP mod,Menin MLL FP FL,gsp ag,TRPV1 potentiator,Sfp PPTase inh
Cc1cccc(CN2C(=O)N/C(=C/c3ccc(C)s3)C2=O)c1,15,2%,-0.4%,?,-32%[inhibitor],-8,-24%
O=C(COC(=O)c1cc(S(=O)(=O)N2CCOCC2)ccc1Cl)c1ccc[nH]1,-8,·,0.6%,·,-67%[inhibitor],·,·
COc1ccc(N)c(C)c1,2,-5%,-2.3%,·,·,·,·

# The main list resumes, repeating the four entries before the break.
SMILES,D2 PAM,gsp antagonist,ClpP mod,Menin MLL FP FL,gsp ag,TRPV1 potentiator,Sfp PPTase inh
O=C(NCc1ccc(S(=O)(=O)NC2CCCCC2)s1)c1ccccc1,0,4%,·,2.8,-5%[15.4 µM],-2,4%
CCc1c(C)nc2nc(NC(C)=O)[nH]n2c1=O,-5,13%,-2.6%,-0.4,6%,12,-3%
CC(C)CNC(=O)c1cc(-c2ccc(Br)cc2)on1,3,6%,-1.1%,2.7,-37%[inhibitor],-11,28%
CC(C)(C)n1nnnc1CN(Cc1cccnc1)Cc1ccccc1Cl,-4,?,-1.8%,2.3,5%,-10,0%
COc1ccc(CCNC(=O)C2CCN(C(=O)NC3CCCCC3)CC2)cc1,-25,-9%,1.7%,0.9,2%,-12,12%
O=C(NCc1ccc(OC(F)(F)F)cc1)C12CN(Cc3ccccc3)CC1C(c1cccc([N+](=O)[O-])c1)=NO2 (stereo unspecified),-23,5%,-3.7%,1.7,·,15,-15%
COc1ccc(S(=O)(=O)NC(C)C(=O)NCCN2CCOCC2)cc1Cl (stereo unspecified),-21,16%,0.8%,-0.9,-11%[15.4 µM],3,-4%
COc1ccccc1C(=O)NC(=O)COC(=O)c1ccco1,-6,-1%,·,·,29%[15.4 µM],-7,·
CC1(C)CC(=O)C2=C(C1)N(c1cccnc1)C(N)=C(C#N)C2c1cccs1 (stereo unspecified),9,-3%,-3.6%,?,-9%[15.4 µM],-4,?
Cc1ccccc1N(CC(=O)NCc1ccco1)C(=O)CCC(=O)Nc1nccs1,-2,6%,·,-1.3,-1%[15.4 µM],-5,18%
O=C(CCC(=O)c1ccccc1)Nc1ccc(C(=O)O)cc1,-26,-3%,-3.6%,3.2,7%,5,9%
CCNc1ccc([N+](=O)[O-])cc1,-2,5%,·,-1.3,4%,6,28%
Fc1cccc(CSc2ccc(-c3ccco3)nn2)c1,-8,7%,-4.1%,5.2,26%,9,16µM*
COc1ccc(NC(=O)COC(=O)COc2ccc(Br)cc2)cc1,-3,0%,·,3.9,1%,3,16%
O=C(Nc1ccc(OC(F)F)c(Cl)c1)[C@@H]1CCCN1C(=O)c1cccs1,-3,21%,0.9%,7.7,7%[15.4 µM],-1,9%
COc1ccc(NC(=O)NC2CCN(C(C)C)CC2)c(OC)c1,-12,14%,-0.5%,0.5,24%,28,4%
CCOC(=O)c1[nH]c(=O)[nH]c1CNc1ccccc1C#N,-8,9%,-2.2%,-0.6,3%[15.4 µM],-2,22%
COc1ccc([C@H]2CC(=O)C=C(/C=C/c3ccc(C(F)(F)F)cc3)C2)cc1,-13,-1%,-0.6%,·,-9%,1,·
Cc1ccccc1NC(=O)CN1C(=O)NC2(CCCCCCC2)C1=O,-16,9%,-3.7%,·,-49%[inhibitor],0,·
COc1ccc(N(C)S(=O)(=O)c2c(C)noc2C)c(OC)c1,8,-3%,·,0.3,-3%,23,12%
CC1CCCC(C)N1CCCNC(=O)c1ccc2nc(N3CCCCC3)sc2c1 (stereo unspecified),-8,0%,4.8%,-2.4,-66%[inhibitor],-12,3%
OCCNc1nc(N2CCN(c3ccccc3)CC2)nc2ccccc12,-4,-6%,-4.0%,-0.7,7%,-15,3%
COC(=O)[C@H](Cc1ccccc1)NC(=O)NCCc1ccccc1F,1,1%,-0.5%,2.8,-42%[inhibitor],6,-3%
COc1cccc(NC(=O)Nc2nccc(C)n2)c1,-3,5%,0.6%,-0.2,?,-4,11%
O=CN/N=C/c1c(O)ccc2ccccc12,-15,-1%,-2.2%,-14,-1%,-5,12%
COc1ccc(NC(=O)CSc2nc(=O)n(CCN3CCOCC3)c3c2CCC3)cc1,-2,-12%,-4.7%,·,26%,9,·
COc1ccc(NC(=O)Cn2c(=O)cnc3ccccc32)cc1S(=O)(=O)N1CCCCC1,6,-1%,-1.6%,·,-7%,13,·
CCn1c(-c2nn(-c3ccc(C)cc3)ccc2=O)n[nH]c1=S,-18,-10%,0.7%,-0.9,-68%[inhibitor],-1,-27%
CCn1c(O)c(C=NCCN2CCOCC2)sc1=S,-14,1%,-14%,2.3,3%,4,12%
COc1cccc(C(=O)OCn2nnc3ccccc3c2=O)c1OC,0,-5%,0.7%,0.0,7%,-2,1%
Cc1cccc(C(CC(=O)NCCc2ccccc2)c2ccccc2)c1O (stereo unspecified),-6,-26%,2.7%,0.0,-33%[inhibitor],-4,79µM*
COc1ccc(/C=N/NS(C)(=O)=O)c(OC)c1,3,3%,-3.0%,·,?,13,-12%
COc1ccccc1N1CCN(C(=O)c2cccc(N3C(=O)C4C5C=CC(C5)C4C3=O)c2)CC1 (stereo unspecified),-9,-12%,1.4%,-1.2,-37%[inhibitor],-1,22%
Cc1ccc(C)c(NC(=O)CN(C)C(=O)CSCc2c(C)noc2C)c1,-22,3%,-0.4%,·,-1%,8,·
O=C(N/N=C/c1cccnc1)c1ccc([N+](=O)[O-])cc1,-24,7%,2.3%,3.8,-39%[inhibitor],·,10%
Cc1ccc([C@H]2N[C@]3(CCCN(Cc4ccc(Br)cc4)C3=O)[C@H]3C(=O)N(C)C(=O)[C@@H]23)cc1,-16,·,-2.6%,·,?,·,·
Nc1ccccc1C(=O)NC(=O)Nc1ccc(Oc2ncc(Br)cn2)c(Cl)c1,-17,6%,22µM*,·,?,·,·
CN(CC(=O)NCCc1ccc(S(N)(=O)=O)cc1)c1ccccc1,0,·,·,-1.2,3%[15.4 µM],4,16%
Cc1ccc(C)c(NC(=S)N(Cc2ccco2)C(C)c2cccs2)c1 (stereo unspecified),-1,3%,-0.3%,4.9,?,20,?
COc1ccccc1CNC(=O)CCNS(=O)(=O)c1cccc2nonc12,-8,3%,·,0.3,-2%[15.4 µM],1,21%
COc1ccccc1CNS(=O)(=O)c1c(C(=O)N2CCCCC2)c(C)n(C)c1C,-13,-3%,0.2%,-5.4,4%,1,16%
O=C(COC(=O)/C=C/c1ccc(F)cc1)NC1CCCC1,19,1%,0.5%,·,-1%,-1,·
C[C@@H]1CN(S(=O)C(C)(C)C)[C@H](CCO)/C1=C\c1ccccc1 (stereo partly specified),-1,4%,0.1%,·,·,·,·
Oc1ccc(N2CCN(C(=S)NCCc3ccccc3)CC2)cc1,28,4%,2.1%,0.4,-1%,-19,11µM*
CCOC(=O)c1sc(=S)n(-c2ccc(OC)cc2)c1C,-2,-2%,·,3.5,13%[15.4 µM],-13,5%
COc1ccc(CCNC(=O)CS(=O)Cc2nc(-c3ccccc3Cl)oc2C)cc1OC (stereo unspecified),-5,3%,-3.6%,·,-2%,-4,14%
O=C(NCCCNc1ccc(C(F)(F)F)cc1[N+](=O)[O-])c1cc(F)c(F)cc1Cl,7,?,0.3%,1.6,-30%[inhibitor],-13,?
Cc1nc(SCC(O)CCl)c([N+](=O)[O-])[nH]1 (stereo unspecified),-29,10%,2.2%,2.6,8%,28,14%
CN(C(=O)C1CCC(=O)N(CCc2ccc(Cl)cc2)C1)C1CCOCC1 (stereo unspecified),-7,4%,-1.9%,·,-25%,2,13%
O=C(NCCCCCCNC(=O)N1CCCCCC1)N1CCCCCC1,-7,1%,-0.3%,0.3,-9%,3,-4%
S=C(N/N=C/c1ccc2ncccc2c1)Nc1cccnc1,6,-2%,-1.2%,-0.9,?,9,-5%
COc1ccc(-n2nc3c(c2NC(=O)c2cc(Br)ccc2Cl)CS(=O)C3)cc1 (stereo unspecified),-3,-5%,0.5%,-0.3,-11%,?,3%
CCCSc1ccc([C@@H]2[C@@H]3C(=O)N(C)C(=O)[C@@H]3[C@]3(C(=O)OC)CCCCN23)cc1OC,-11,-15%,0.7%,·,5%,21,·
CCc1cc2c(=O)n(CC(=O)NCCc3ccc(OC)c(OC)c3)cnc2s1,-4,3%,·,1.8,18%,?,21%
